VDR inh: inhibitors of human vitamin D receptor. VDR-SRC2-3 peptide fluorescence polarization, 2 h. P11473. hit rate 0.93% among 400,000. AID 504847. Potency, µM, inactives show max response, negative = inhibition, actives largely listed as inhibitors; active = well fitted inhibition curve with a large enough effect; inconclusive = small, poorly fitted or top-dose-only effect, or another doubt; inactive = no such curve, though single readings can be large or run the other way; also: series mostly up to about 120 µM
Target sequence (P11473 whole entry, looked up): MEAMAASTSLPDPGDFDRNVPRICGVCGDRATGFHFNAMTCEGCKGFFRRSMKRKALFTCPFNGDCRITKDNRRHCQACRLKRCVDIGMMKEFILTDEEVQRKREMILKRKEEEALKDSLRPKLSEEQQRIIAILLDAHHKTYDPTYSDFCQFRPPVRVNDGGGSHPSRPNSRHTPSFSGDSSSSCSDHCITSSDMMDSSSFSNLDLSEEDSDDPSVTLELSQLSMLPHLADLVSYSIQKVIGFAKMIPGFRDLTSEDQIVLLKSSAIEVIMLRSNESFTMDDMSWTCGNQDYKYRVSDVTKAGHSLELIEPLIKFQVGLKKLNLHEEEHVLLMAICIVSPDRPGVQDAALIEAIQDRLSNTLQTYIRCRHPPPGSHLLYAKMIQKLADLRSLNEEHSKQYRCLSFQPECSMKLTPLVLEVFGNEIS
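Fluorescence polarization assay of small-molecule disruption of VDR binding to coregulator peptide SRC2-3. Compounds and controls pin-transferred, then read after 2 h incubation at ambient room temperature.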
Numbers without * were called inactive; ? = inconclusive; & = joins results of further samples. % is scaled to controls: 0 for no effect and ±100 for the full control effect; potency is read from the fitted curve at half-maximal effect. This is a subset; rates above refer to the full screens.

smiles,VDR inh
Cc1ccc(Sc2ncnc3onc(C)c23)c(C)c1,-26%
CC1(NC(=O)Cc2ccc(S(=O)(=O)N3CCOCC3)s2)CCS(=O)(=O)C1 (stereo not drawn),-8%
O=C(CN1C(=O)S/C(=C/c2cccn2-c2ccc(O)cc2)C1=O)N1CCCC1,12%
CCC(CC)C(=O)Nc1cccc(C(=O)Nc2ccc(OC)cc2[N+](=O)[O-])c1,-14%
CCCn1nnnc1NCc1ccc(CC)cc1,-16%
Oc1cccc(/C=N/NC(=S)NCCN2CCOCC2)c1O,-20%
O=C(Nc1ccc(O)cc1)C1CCCN1S(=O)(=O)c1ccc(F)cc1 (stereo not drawn),8%
O=C(NCc1n[nH]c(=S)n1-c1ccc(Br)cc1)c1cccs1,-14%
CN(Cc1ccc2nsnc2c1)Cc1nc(Cc2cccc(F)c2)no1,7%
COc1cc2ccccc2cc1C(=O)OCC(=O)N(C)c1c(N)n(Cc2ccccc2)c(=O)[nH]c1=O,-5%
COc1cccc(N2CCN(C(=O)C(CCSC)NS(=O)(=O)c3ccc4c(c3)oc(=O)n4C)CC2)c1 (stereo not drawn),12%
COc1ccc(NC2CCCN(C(=O)CCC3=NNC(=O)CC3)C2)cc1 (stereo not drawn),-10%
Cc1cc(/C=C(\C#N)C(=O)O)c(C)n1-c1ccc(Br)cc1,-8%
CCCN(CCC)C(=S)NC(=O)c1ccc(-c2ccccc2)cc1,-3%
O=C(OCc1cc2ccccc2[nH]c1=O)c1cccnc1,-9%
CN(C(=O)CSc1nnc(-c2ccc(F)cc2)n1C)C1CCS(=O)(=O)C1 (stereo not drawn),-2%
CC(=O)N1CCOc2ccc(S(=O)(=O)N3CCC(C(=O)Nc4ccccc4F)CC3)cc21,-3%
CCc1ccc(NC(=O)Cn2c(=O)n(-c3ccc(Cl)c(Cl)c3)c(=O)c3c(C)c(C)sc32)cc1,-10%
CC12CCC=CC1C(c1ccc(F)c(Br)c1)N(Cc1ccccc1)C2=O (stereo not drawn),?
CC(=O)N1CCN(c2nc(-c3cccs3)nc3ccccc23)CC1,-16%
Cc1c(C(=O)N2CCCc3ccccc32)sc2nc(-c3ccccc3)cn12,-18%
Cc1occc1-c1nnc(SCC(=O)NCC2CCCO2)n1C (stereo not drawn),-19%
Cc1ccc(C)c(NC(=O)C2C3CCCC2C3c2ccccc2)c1 (stereo not drawn),4%
COC(=O)C(C)Nc1cccc(Br)c1 (stereo not drawn),-8%
O=C(Nc1cc(Br)ccc1O)c1cc(-c2ccc3c(c2)OCO3)on1,26%

Sorted by molecular weight (descending): part of the list above.
smiles,VDR inh
COc1cccc(N2CCN(C(=O)C(CCSC)NS(=O)(=O)c3ccc4c(c3)oc(=O)n4C)CC2)c1 (stereo not drawn),12%
CCC(CC)C(=O)Nc1cccc(C(=O)Nc2ccc(OC)cc2[N+](=O)[O-])c1,-14%
Cc1cc(/C=C(\C#N)C(=O)O)c(C)n1-c1ccc(Br)cc1,-8%

Following part:
smiles,VDR inh
CC(C)NC(=O)CSc1nnc(CNC(=O)OC(C)(C)C)n1C,-5%
Cc1nc(C(C)NC(=O)CCc2nnc(CCCc3ccccc3)o2)c(C)s1 (stereo not drawn),?
CC12CCC(C(=O)N(CSC(=S)N/N=C\c3ccccc3O)C1=O)C2(C)C (stereo not drawn),-3%
Cc1ccc(F)cc1NCC(=O)Nc1ccc(Br)cc1,8%
O=S(=O)(NCc1ccc(F)cc1)c1ccc2[nH]c3c(c2c1)CCCCC3,-5%
O=CN1CCN(S(=O)(=O)c2ccc(Cl)c(C(=O)O)c2)CC1,1%
Cc1c(CN(C)C(=O)c2cc(-c3ccccc3)nc3ccc(Br)cc23)cnn1C,-22%
CCOc1ccc(CCNC(=O)COC(=O)c2ccc(F)c(S(=O)(=O)N3CCOCC3)c2)cc1OCC,5%
CCC1(c2ccccc2)NC(=O)N(CC(=O)NNC(=O)CCN2CCN(c3ccccc3)CC2)C1=O (stereo not drawn),4%
CCN(CC)CCNC(=O)C(C(=O)c1ccccc1)n1ccccc1=O (stereo not drawn),5%
NC(=O)c1ccc(NC(=O)CCc2nc3ccccc3s2)cc1,-13%
COc1ccc(S(=O)(=O)n2cnc3ccccc32)cc1OC,-5%
C=CCc1cccc2cc(C(=O)N3CCN(c4ccccn4)CC3)c(=O)oc12,-1%
CC(NC(=O)/C=C/c1ccc(Br)cc1)c1ccc(Cl)cc1 (stereo not drawn),-5%
O=C(Nc1ccc(F)cc1F)Nc1ccc(F)cc1F,3%
CCOc1ccccc1NC(=O)COC(=O)C(Cc1ccccc1)NC(=O)c1ccco1 (stereo not drawn),-10%
COc1ccc(-c2nc3ccccc3n2Cc2ccc(C(C)C)cc2)cc1,-9%
Cc1ccc(C(=O)NCC(=O)OCc2cc(=O)n3nc(C4CC4)sc3n2)cc1,7%
Nc1ncccc1OCc1cccc(C(F)(F)F)c1,-8%
Cc1cccc(NC(=O)NNC(=O)c2ccc(C)c([N+](=O)[O-])c2)c1,-6%
O=C(CN1C(=O)NC2(CCCCC2)C1=O)N1CCN(S(=O)(=O)c2cccc([N+](=O)[O-])c2)CC1,15%
O=S(=O)(Nc1cc(F)ccc1F)c1cccc2nonc12,-7%
COc1ccc(NS(=O)(=O)c2cc(NC(=O)CCNC(C)=O)ccc2N2CCOCC2)cc1,-20%
COc1cccc(-c2c(-c3cc(OC)cc(OC)c3)n(C)c3ccc(-c4cnc(OC)nc4)cc23)c1,-12%
Cc1nccn1CCc1n[nH]c(=S)n1Cc1ccccc1,17%
N#CCCn1c(=O)c(-c2ccccc2)nc2cnc(N3CCNCC3)nc21,2%
CCCCOc1cccc(C(=O)Nc2ccc(NC(=O)c3ccco3)cc2)c1,-16%
Cc1cc(OCC(=O)N[C@@H](CSCc2ccccc2)C(=O)O)c2c(C)c(C)c(=O)oc2c1,-19%
Cn1c(=O)c2c(-c3ccccc3)n3c(c2n(C)c1=O)C(c1ccco1)Nc1ccccc1-3 (stereo not drawn),15%
CCCCn1cc2c(c1-c1ccccc1Br)c(=O)n(C)c(=O)n2C,-1%
CCOC(=O)C1CCCN(S(=O)(=O)c2ccc3c4c2CC(=O)N4CC(C)S3)C1 (stereo not drawn),-4%
COc1cccc(OC)c1C(=O)N1CCN(Cc2ccc3c(c2)OCO3)CC1,2%
CCOC(=O)Cn1c(C)nc2c(C(=O)OCC)sc(C)c2c1=O,8%
CCC(C(=O)N1CCN(c2ccccc2)CC1)n1nc(C)c2sc3ccccc3c2c1=O (stereo not drawn),11%
Cc1ccc(C(=O)OCC(=O)NCCc2ccc(S(N)(=O)=O)cc2)o1,-9%
CCOC(=O)CC1C(=O)NCCN1S(=O)(=O)c1ccc(Cl)cc1 (stereo not drawn),-14%
Cc1sc(NC(=O)c2ccccc2)c(C(=O)N2CCN(C)CC2)c1C,4%
Cc1cccc(CC2SC(N3CCN(c4ccccc4)CC3)=NC2=O)c1 (stereo not drawn),-18%
CC(=O)Nc1ccc(S(=O)(=O)Oc2ccc(N3C(=O)C4CCCCC4C3=O)cc2)cc1 (stereo not drawn),4%
O=C(NCc1ccco1)c1ccc(Cn2c(=O)c3ccccc3n(Cc3cccc(Cl)c3)c2=O)cc1,-24%
COc1ccc(-c2nc(CCNS(=O)(=O)c3ccc4c(c3)OCCO4)cs2)cc1,2%
O=C(NCc1ccccc1)Nc1cccn(Cc2ccccc2)c1=O,-3%
Cc1c(C(=O)NC2CC2)oc2ccccc12,-6%
O=C(COC(=O)c1cccs1)NCc1ccc2c(c1)OCO2,16%
CC(C)(C)OC(=O)NCCCC[C@@H](C(=O)NCCCCCCCCCCC(=O)N1CCN(C(=O)OC(C)(C)C)CC1)n1cc(CCCC(=O)O)nn1,-28%
CC(=O)N1c2c(ccc3ccccc23)C(C)CC12CCCCC2 (stereo not drawn),4%
Cc1ccc(OCCCC(=O)Nc2ccc(S(=O)(=O)Nc3ccccn3)cc2)cc1,-2%
COc1ccc(NC(=O)c2cc3c(s2)-c2c(C)cccc2OC3)cc1Cl,6%
CCN1CCN(c2ccc(S(=O)(=O)N3CCOCC3)cc2NC(=O)c2ccc(Cl)s2)CC1,-1%
COc1ccccc1-c1ccc(SCc2ccc(C)cc2)nn1,-12%

Shown with the structure last: entries from further up.
VDR inh	molecule
16%	O=C(COC(=O)c1cccs1)NCc1ccc2c(c1)OCO2
-28%	CC(C)(C)OC(=O)NCCCC[C@@H](C(=O)NCCCCCCCCCCC(=O)N1CCN(C(=O)OC(C)(C)C)CC1)n1cc(CCCC(=O)O)nn1
4%	CC(=O)N1c2c(ccc3ccccc23)C(C)CC12CCCCC2 (stereo not drawn)
-2%	Cc1ccc(OCCCC(=O)Nc2ccc(S(=O)(=O)Nc3ccccn3)cc2)cc1
6%	COc1ccc(NC(=O)c2cc3c(s2)-c2c(C)cccc2OC3)cc1Cl
-1%	CCN1CCN(c2ccc(S(=O)(=O)N3CCOCC3)cc2NC(=O)c2ccc(Cl)s2)CC1

Continued.
smiles,VDR inh
COC1CCN(C(=O)CC2C(=O)NCCN2CC2CCCCC2)CC1 (stereo not drawn),-3%
Cc1noc(NS(=O)(=O)c2ccc(NC(=O)CSc3nnc4c(n3)[nH]c3ccccc34)cc2)c1C,-7%
CC(C)C[C@H](NC(=O)C1CCN(S(=O)(=O)c2ccccc2)CC1)C(=O)NCc1ccncc1,-6%
c1ccc2c(c1)CCN(c1nc3ccccc3n3cnnc13)C2,-19%
CSC(=O)NC12CC3CC(CC(C)(C3)C1)C2,-2%
CCCCNC(=O)COC(=O)c1ccc(SC)cc1OC,9%
O=C(O)CN1C(=O)C(=O)N(Cc2c(F)cccc2Cl)C1=O,-7%
O=C(CCCCCn1c(=O)[nH]c2ccccc2c1=O)NCc1ccc(Cl)cc1,7%
Cc1cccc(NC(=O)CSc2nc3ccccc3c3nc(CCc4c(C)n[nH]c4C)nn23)c1,6%&-1%
c1ccc(-c2ncc3ccccn23)cc1,-1%
CC(C)CN1C(=O)/C(=C(/C#N)C(=O)NC2CCCCC2)c2ccccc21,?
Cn1cc(CCCC(=O)NCc2cccc(Br)c2)c2ccccc21,10%
CC(C)C(C)(C#N)NC(=O)CSc1nc2scc(-c3ccc(F)cc3)c2c(=O)n1Cc1ccccc1 (stereo not drawn),-2%
COc1ccc(N2CCN(C(=O)CCCCCn3c(=S)[nH]c4cc5c(cc4c3=O)OCO5)CC2)cc1,0%
CCOc1ccc(S(=O)(=O)Nc2cccnc2)cc1,-5%
CCOc1ccc(NC(=O)CC(Cc2cc(C)cc(C)c2)C(=O)O)cc1 (stereo not drawn),3%
COc1ccc2nc(SCC(=O)Nc3c(C)cc(C)cc3C)[nH]c2c1,-3%
O=CNc1ccc(S(=O)(=O)NCc2ccccc2)cc1,5%
CCN(c1ccc(C(=O)CN2C(=O)NC3(CCOc4ccccc43)C2=O)cc1)S(C)(=O)=O (stereo not drawn),7%
Cc1ccc(NC(=O)c2ccc(S(=O)(=O)Nc3c(C)n(C)n(-c4ccccc4)c3=O)cc2)nc1,-3%
O=C(CN1CCC(Cc2ccccc2)CC1)NCCc1ccc(F)cc1,-7%
Cc1cc(C)c(C#N)c(SCCN2CCOCC2)n1,-11%
CCOc1nc(NC2CCCCC2)nc(NC(C)(C)C)n1,-14%
C/C(=N\NC(=O)c1c(Cl)c(C)nn1C)c1ccc(NC(=O)COc2ccc(Cl)cc2C)cc1,10%
Clc1ccc(Cn2nnc(-c3ccc(N4CCOCC4)cc3)n2)cc1,10%
CCOCc1nnc(NS(C)(=O)=O)s1,3%
COc1ccc(CNC(=O)Cn2c(=O)oc3cc(S(=O)(=O)N4CCCC4)ccc32)cc1,14%&13%
CCSC(C)CC1CC(=O)CC(=O)C1 (stereo not drawn),20%
COc1ccc(C(=O)NC(=O)NC2(C(Cl)(Cl)Cl)OCCO2)cc1,16%
O=C(CSc1nnc(-c2ccncc2)o1)NCc1ccc(Cl)cc1,8%
O=C(CCCOc1ccccc1)N1CCN(c2ccc(F)cc2)CC1,9%
O=C(Cn1c(-c2ccccn2)nc2ccccc21)N/N=C/c1cccnc1,-15%
Cc1ccccc1C(=O)Nc1nc2c(s1)CC(C(C)(C)C)CC2 (stereo not drawn),6%
CC1CCCCC1NC(=O)CCn1c(=O)sc2ccccc21 (stereo not drawn),-19%
COc1cc(-n2c(=O)c3ccccc3n(Cc3cc(=O)n4ccccc4n3)c2=O)cc(OC)c1OC,-13%
CCc1ccccc1NC(=O)CCCSc1nc(-c2ccco2)cc(C(F)(F)F)n1,6%
CCOc1ccccc1C(=O)N1CCC(C(=O)c2ccc(F)cc2)CC1,9%
O=C(O)C1=C(OCc2ccc(F)c(F)c2)C(=O)NCC1,79µM*
CCC(=O)NNc1ncnc2ccccc12,-5%
Cc1ccsc1CNC(=O)c1c(-c2ccccc2)noc1C,8%
CCOC(=O)COc1ccc(C2CC(C)=NN2c2ccccc2)cc1 (stereo not drawn),-19%
CCO[C@@H]1OC(C(=O)O)=C[C@H](C2CCCCC2)[C@H]1CCCO,-25%
Cc1noc(C)c1COC(=O)c1cccc(S(=O)(=O)N2CCOCC2)c1,-12%

Rewritten with values ahead of the structure: part of the list above.
| VDR inh | structure |
| --- | --- |
| 6% | Cc1ccccc1C(=O)Nc1nc2c(s1)CC(C(C)(C)C)CC2 (stereo not drawn) |
| -19% | CC1CCCCC1NC(=O)CCn1c(=O)sc2ccccc21 (stereo not drawn) |

Screens: PubChem, National Center for Advancing Translational Sciences (NCATS)
